Ecoli rRNA inh – reduced GFP signal of wild-type E. coli, primary screen, bacterial rRNA inhibitor project, GFP/RFP fluorescence, OD600, single point | E. coli WT GFP vs humanized-ribosome RFP mutants, 24 h; stronger effect = lower value; DMSO median 0, no signal -100 | GFP signal change (wild-type ribosome), % (test concentration not listed) | 350,000 compounds, 1.6% hits | AID 720706, 2013;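 active means significant combined selectivity score with lowered wild-type GFP, culture density cut under 30%, mutant RFP and density less affected; inactive means any of these conditions unmet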; further: one replicate is shown; some compounds called inactive have numbers as strong as hits
AF4-AF9 inh – inhibitors of AF4 peptide binding to AF9, primary screen, biochemical, AlphaScreen, biotin-AF4 peptide, FLAG-AF9, single point. inhibition, % at 10 µM. 350,000 compounds, 0.47% hits. Protein AF-9 (Homo sapiens), P42568;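 active means every replicate reaching a set inhibition limit, whatever the replicate mean, cut at about 25% in these data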;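 further: 0% = plate neutral control median and 100% = total signal loss; the record names both 10 and 1 µM as test concentration; the first replicate is given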
Target sequence (P42568 whole entry, looked up): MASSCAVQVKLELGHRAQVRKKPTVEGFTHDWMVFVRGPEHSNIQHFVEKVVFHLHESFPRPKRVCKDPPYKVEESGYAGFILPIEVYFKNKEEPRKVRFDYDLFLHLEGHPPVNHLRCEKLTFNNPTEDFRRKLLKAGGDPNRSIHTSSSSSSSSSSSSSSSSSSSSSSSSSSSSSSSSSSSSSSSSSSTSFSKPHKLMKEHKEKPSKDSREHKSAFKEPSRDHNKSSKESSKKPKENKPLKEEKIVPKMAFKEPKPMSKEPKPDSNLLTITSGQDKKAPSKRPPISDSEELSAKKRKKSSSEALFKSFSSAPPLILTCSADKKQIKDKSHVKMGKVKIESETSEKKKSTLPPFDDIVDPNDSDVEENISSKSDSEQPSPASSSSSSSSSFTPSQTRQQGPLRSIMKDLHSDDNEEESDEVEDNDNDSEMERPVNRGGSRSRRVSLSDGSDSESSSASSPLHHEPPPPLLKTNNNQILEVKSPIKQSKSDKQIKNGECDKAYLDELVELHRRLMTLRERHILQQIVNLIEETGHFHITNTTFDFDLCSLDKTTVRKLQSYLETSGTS
Ecoli rRNA inh OD600 – also measured in Ecoli rRNA inh; calls as there; OD600 change, %; measured here: OD600 growth;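 optical density of the mix in the first replicate; 0 = DMSO median and -100 = no signal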
Ecoli rRNA inh RFP – also measured in Ecoli rRNA inh; calls as there; RFP signal change, %; measured here: RFP humanized mutant strains;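 first replicate; 0 = DMSO median and -100 = no signal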
* hit, by the source's call; & = joins results of further samples. Not all compounds are listed; count on the stated rates, not on these rows.

`CCC(=O)N1CC2(C1)CN(C(=O)c1cnccn1)[C@H](CO)c1c2c2ccc(OC)cc2n1C` gave Ecoli rRNA inh 1.2, AF4-AF9 inh -4.9, Ecoli rRNA inh OD600 3.9 and Ecoli rRNA inh RFP 0.5.
Screening CC(C)CC#Cc1ccc([C@H]2[C@H]3CN(C(=O)Cc4ccccc4)CC(=O)N3[C@H]2CO)cc1 returned Ecoli rRNA inh -58.3, AF4-AF9 inh -1.4, Ecoli rRNA inh OD600 -75.0 and Ecoli rRNA inh RFP -12.2.
For CCC(=O)N1[C@H](CO)[C@H](c2ccc(C3=CCCC3)cc2)[C@H]1CNCC1CCCC1 the results were Ecoli rRNA inh 0.4, AF4-AF9 inh 1.4, Ecoli rRNA inh OD600 -7.9 and Ecoli rRNA inh RFP 4.6.
For COc1ccc(-c2ccc([C@H]3[C@H](CO)N4C(=O)CN(C(=O)C5CCCC5)C[C@@H]34)cc2)cc1 the results were Ecoli rRNA inh 4.4, AF4-AF9 inh -12.8, Ecoli rRNA inh OD600 -3.3 and Ecoli rRNA inh RFP 5.9.
Screening CCC(=O)N1CC2(C1)[C@H](c1ccc(C3=CCCC3)cc1)[C@H](CO)N2C(=O)COC returned Ecoli rRNA inh -0.7, AF4-AF9 inh -3.0, Ecoli rRNA inh OD600 -0.4 and Ecoli rRNA inh RFP -3.9.
For Cc1noc(C)c1NC(=O)Nc1ccc2c(c1)C(=O)N([C@@H](C)CO)C[C@H](C)[C@@H](CN(C)S(=O)(=O)c1ccccc1)OCCCC[C@@H](C)O2 the results were Ecoli rRNA inh -3.3, AF4-AF9 inh 0.6, Ecoli rRNA inh OD600 -0.5 and Ecoli rRNA inh RFP -1.7.
O=C(C1CCCC1)N1CC(=O)N2[C@H](CO)[C@@H](c3ccc(C#CCc4ccccc4)cc3)[C@H]2C1 was read as Ecoli rRNA inh 1.2, AF4-AF9 inh 0.4, Ecoli rRNA inh OD600 -16.1 and Ecoli rRNA inh RFP -1.8.
`COCCN(C[C@H]1[C@@H](c2ccccc2)[C@H](CO)N1C(=O)C1CCC1)C(C)=O` gave Ecoli rRNA inh 0.8, AF4-AF9 inh -1.2, Ecoli rRNA inh OD600 5.9 and Ecoli rRNA inh RFP 0.7.
CN1[C@@H]2c3ccc(/C=C/c4ccccc4)c(=O)n3C[C@@H]2[C@@H](CO)[C@@H]1C(=O)NC1CCCC1 was read as Ecoli rRNA inh -4.2, AF4-AF9 inh -4.1, Ecoli rRNA inh OD600 -10.9 and Ecoli rRNA inh RFP 3.2.
For COc1ccc(NC(=O)Nc2ccc3c(c2)C(=O)N([C@@H](C)CO)C[C@@H](C)[C@H](CN(C)C)OCCCC[C@H](C)O3)cc1 the results were Ecoli rRNA inh 2.8, AF4-AF9 inh 7.3, Ecoli rRNA inh OD600 3.4 and Ecoli rRNA inh RFP 0.0.
For N#C[C@@H]1[C@@H](c2ccccc2C2=CCCC2)[C@@H](CO)N1C(=O)NC1CCCC1 the results were Ecoli rRNA inh -11.9, AF4-AF9 inh -0.5, Ecoli rRNA inh OD600 -47.2 and Ecoli rRNA inh RFP 0.0.
`COc1ccc(-c2ccc3c(c2)[C@H]2[C@H](CCN2C(=O)C2CCC2)[C@H](CO)N3C)cc1` gave Ecoli rRNA inh -20.2, AF4-AF9 inh 12.6, Ecoli rRNA inh OD600 -43.6 and Ecoli rRNA inh RFP 26.0.
O=C(C1CCCC1)N1CC2(C1)[C@@H](c1ccccc1)[C@H](CO)N2Cc1ccccc1F was read as Ecoli rRNA inh -5.4, AF4-AF9 inh -1.9, Ecoli rRNA inh OD600 -1.6 and Ecoli rRNA inh RFP 0.2.
For CCCC#Cc1ccc([C@H]2[C@@H](CO)N3C(=O)CN(C(=O)c4ccc(F)cc4)C[C@@H]23)cc1 the results were Ecoli rRNA inh 0.8, AF4-AF9 inh 1.0, Ecoli rRNA inh OD600 -4.9 and Ecoli rRNA inh RFP -1.3.
C/C=C/c1ccc([C@H]2[C@H](CO)N3C(=O)CN(S(=O)(=O)c4ccccc4)C[C@@H]23)cc1 was read as Ecoli rRNA inh -3.2, AF4-AF9 inh -1.0, Ecoli rRNA inh OD600 0.3 and Ecoli rRNA inh RFP -2.4.
`C/C=C/c1ccc([C@H]2[C@H](CO)N3C(=O)CN(Cc4ccc(C)cc4)C[C@@H]23)cc1` gave Ecoli rRNA inh 2.4, AF4-AF9 inh 6.4, Ecoli rRNA inh OD600 -7.0 and Ecoli rRNA inh RFP 1.3.
For C[C@@H]1CCCCO[C@@H](CN(C)Cc2ccc3c(c2)OCO3)[C@H](C)CN([C@H](C)CO)C(=O)c2cc(NS(=O)(=O)c3ccccc3)ccc2O1 the results were Ecoli rRNA inh 2.5, AF4-AF9 inh 3.1, Ecoli rRNA inh OD600 0.3 and Ecoli rRNA inh RFP -1.5.
C[C@H]1CN([C@@H](C)CO)C(=O)c2cc(NC(=O)Cn3cnnn3)ccc2O[C@H]1CN(C)Cc1ccc(-c2ccccc2)cc1 was read as Ecoli rRNA inh 3.0, AF4-AF9 inh 2.8, Ecoli rRNA inh OD600 4.1 and Ecoli rRNA inh RFP -1.2.
Screening COc1ccc2c3c([nH]c2c1)[C@H](CO)N(CC1CC1)CC31CCN(Cc2ccccc2F)CC1 returned Ecoli rRNA inh -3.8, AF4-AF9 inh 15.6, Ecoli rRNA inh OD600 -50.5 and Ecoli rRNA inh RFP 34.7.
Screening CC(C)NC(=O)Nc1ccc2c(c1)CC(=O)N([C@@H](C)CO)C[C@H](C)[C@@H](CN(C)S(=O)(=O)c1ccccc1)O2 returned Ecoli rRNA inh 6.7, AF4-AF9 inh -0.9, Ecoli rRNA inh OD600 10.5 and Ecoli rRNA inh RFP -0.1.
`O=C(c1ccccc1F)N1CC(=O)N2[C@H](CO)[C@@H](c3ccc(C#Cc4ccc(F)cc4)cc3)[C@@H]2C1` gave Ecoli rRNA inh -21.0, AF4-AF9 inh 1.5, Ecoli rRNA inh OD600 -26.8 and Ecoli rRNA inh RFP 13.8.
Screening O=C(c1ccc(F)cc1)N1CC(=O)N2[C@H](C1)[C@@H](c1ccc(C#CC3CC3)cc1)[C@@H]2CO returned Ecoli rRNA inh 0.0, AF4-AF9 inh 2.8, Ecoli rRNA inh OD600 -4.1 and Ecoli rRNA inh RFP 8.0.
COc1ccc(NC(=O)N(C)C[C@@H]2Oc3ccc(N(C)C)cc3C(=O)N([C@H](C)CO)C[C@@H]2C)cc1 was read as Ecoli rRNA inh 1.3, AF4-AF9 inh 0.4, Ecoli rRNA inh OD600 4.2 and Ecoli rRNA inh RFP 1.0.
O=S(=O)(Cc1ccccc1)N1C[C@@H]2N[C@H](C1)C2c1ccc(-c2ccccc2)cc1 (some centres not stated) was read as Ecoli rRNA inh -58.2, AF4-AF9 inh 2.1, Ecoli rRNA inh OD600 -74.8 and Ecoli rRNA inh RFP -11.9.
For C[C@@H]1CCCCO[C@H](CN(C)C(=O)Nc2ccccc2)[C@H](C)CN([C@H](C)CO)C(=O)c2cc(NC(=O)c3ccncc3)ccc2O1 the results were Ecoli rRNA inh -3.2, AF4-AF9 inh -0.9, Ecoli rRNA inh OD600 -2.1 and Ecoli rRNA inh RFP 0.3.
`N#Cc1ccc(-c2ccc([C@H]3[C@H](CO)N4C(=O)CN(C(=O)C5CCCC5)C[C@@H]34)cc2)cc1` gave Ecoli rRNA inh -2.3, AF4-AF9 inh -10.6, Ecoli rRNA inh OD600 0.1 and Ecoli rRNA inh RFP -1.2.
Screening N#Cc1ccc(-c2ccc(C3[C@H]4CNC[C@@H]3N4S(=O)(=O)c3ccccc3F)cc2)cc1 (some centres not stated) returned Ecoli rRNA inh 2.1, AF4-AF9 inh 0.2, Ecoli rRNA inh OD600 -25.5 and Ecoli rRNA inh RFP 4.2.
CN1c2ccc(-c3ccccc3)cc2[C@H]2[C@H](CCN2C(=O)NC2CCCCC2)[C@@H]1CO was read as Ecoli rRNA inh -40.9, AF4-AF9 inh 14.7, Ecoli rRNA inh OD600 -60.9 and Ecoli rRNA inh RFP 0.7.
Screening COc1ccc(NC(=O)N2[C@@H]3CNC[C@H]2C3c2ccc(-c3ccccc3C)cc2)cc1 (some centres not stated) returned Ecoli rRNA inh 1.8&-60.8, AF4-AF9 inh 5.0&11.2, Ecoli rRNA inh OD600 -14.5&-69.8 and Ecoli rRNA inh RFP -2.1&-12.9.
For CO[C@@H]1CN(C)C(=O)c2cc(NC(=O)c3cnccn3)ccc2OC[C@@H](C)N(C(=O)C2CC2)C[C@@H]1C the results were Ecoli rRNA inh 0.5, AF4-AF9 inh -1.6, Ecoli rRNA inh OD600 2.8 and Ecoli rRNA inh RFP 0.2.
For CO[C@H]1CN(C)C(=O)c2cc(NC(=O)C3CCCCC3)ccc2OC[C@H](C)N(C(=O)c2ccccc2)C[C@@H]1C the results were Ecoli rRNA inh -3.6, AF4-AF9 inh 0.0, Ecoli rRNA inh OD600 -1.9 and Ecoli rRNA inh RFP -0.6.
`O=C1CCC(C(=O)OCC(=O)Nc2ccccc2Br)=NN1` gave Ecoli rRNA inh 10.6, AF4-AF9 inh -2.0, Ecoli rRNA inh OD600 17.6 and Ecoli rRNA inh RFP 2.2.
`Cc1noc(C)c1NC(=O)Nc1ccc2c(c1)C(=O)N([C@@H](C)CO)C[C@@H](C)[C@H](CN(C)S(=O)(=O)c1ccc(F)cc1)OCCCC[C@H](C)O2` gave Ecoli rRNA inh -0.6, AF4-AF9 inh -1.8, Ecoli rRNA inh OD600 8.4 and Ecoli rRNA inh RFP 0.1.
For CCCCn1c(N)c(N(CC(C)C)C(=O)CCNC(=O)c2ccc([N+](=O)[O-])cc2)c(=O)[nH]c1=O the results were Ecoli rRNA inh -0.1, AF4-AF9 inh 1.1, Ecoli rRNA inh OD600 -2.6 and Ecoli rRNA inh RFP -1.6.
CN(C)CC#Cc1ccc([C@@H]2[C@H]3CN(C(=O)Cc4ccccc4)CC(=O)N3[C@H]2CO)cc1 was read as Ecoli rRNA inh 3.7, AF4-AF9 inh 5.6, Ecoli rRNA inh OD600 20.3 and Ecoli rRNA inh RFP 0.2.
For C(=C\c1ccc(C2[C@H]3CNC[C@@H]2N3Cc2ccc3c(c2)OCO3)cc1)/c1ccccc1 (some centres not stated) the results were Ecoli rRNA inh -54.9, AF4-AF9 inh 10.8, Ecoli rRNA inh OD600 -72.5 and Ecoli rRNA inh RFP -7.7.
`COc1ccc2c3c([nH]c2c1)[C@@H](CO)N(S(C)(=O)=O)CC31CN(C(=O)Cc2cccnc2)C1` gave Ecoli rRNA inh 3.1, AF4-AF9 inh -6.3, Ecoli rRNA inh OD600 6.5 and Ecoli rRNA inh RFP 0.5.
Screening CN1[C@@H]2c3ccc(/C=C/c4ccccc4)c(=O)n3C[C@@H]2[C@@H](CO)[C@@H]1C(=O)NC1CCC1 returned Ecoli rRNA inh -2.9, AF4-AF9 inh -1.4, Ecoli rRNA inh OD600 -1.1 and Ecoli rRNA inh RFP 4.8.
For COc1ccccc1-c1ccc([C@@H]2[C@@H](C#N)N(C(=O)C3CCCC3)[C@@H]2CO)cc1 the results were Ecoli rRNA inh -4.0, AF4-AF9 inh -1.2, Ecoli rRNA inh OD600 -22.4 and Ecoli rRNA inh RFP 29.9.
For C[C@@H]1CN([C@@H](C)CO)C(=O)c2cc(NS(=O)(=O)c3ccc(F)cc3)ccc2O[C@@H](C)CCCCO[C@H]1CN(C)Cc1ccc2c(c1)OCO2 the results were Ecoli rRNA inh 3.0, AF4-AF9 inh 3.6, Ecoli rRNA inh OD600 -8.5 and Ecoli rRNA inh RFP 1.8.
O=C(Nc1ccccc1)N1CC(=O)N2[C@H](C1)[C@@H](c1ccc(C#CC3CCCCC3)cc1)[C@@H]2CO was read as Ecoli rRNA inh 2.1, AF4-AF9 inh 2.9, Ecoli rRNA inh OD600 -2.1 and Ecoli rRNA inh RFP 6.4.
For CN(C)C(=O)[C@@H]1[C@@H](CO)[C@@H]2Cn3c(cccc3=O)[C@@H]2N1C(=O)C1CCCCC1 the results were Ecoli rRNA inh 5.1, AF4-AF9 inh -0.7, Ecoli rRNA inh OD600 11.4 and Ecoli rRNA inh RFP 0.5.
`CCCC#Cc1ccc([C@H]2[C@@H](CO)N(C(C)=O)[C@H]2CN(C)C(=O)C2CC2)cc1` gave Ecoli rRNA inh -1.6, AF4-AF9 inh -1.3, Ecoli rRNA inh OD600 3.2 and Ecoli rRNA inh RFP 2.2.

Bioassay records (PubChem BioAssay)
